Source: PubChem
nsP2pro inh = inhibitors of chikungunya virus nsP2 protease | Potency, µM (titrated, usually from 24.9 µM), inactives show top-dose activity change, negative = inhibition, most hits filed as inhibitors | 1.1% of 31,000 active | FRET peptide cleavage, nsP2pro, fluorescence 1 h | Q8JUX6; active means well fitted inhibition curve with a large enough effect; inconclusive means small, poorly fitted or top-dose-only effect; inactive means no such curve, though single readings can be large or run the other way; further: nearly all actives have a fitted effect of over 60% in size; a reference inhibitor and vehicle were the controls
* hit, by the source's call; i = inactive; ? = inconclusive; & = joins results of further samples; ! = a repeat was not active; [ ] = remark or other dose. On the % scale 0 is the no-effect control and ±100 the full control effect; potency means the concentration at half of the fitted maximal effect.

| structure | nsP2pro inh |
| --- | --- |
| COc1ccc(C2Nc3ccccc3C(=O)N2Cc2ccc(C)o2)cc1COc1c(C)cccc1C (configuration not stated) | ? |
| Cc1cc2c(s1)c1cnn(Cc3ccc(Cl)c(Cl)c3)c(=O)c1n2C | i |
| COC(=O)C12C(=O)C(C)(O)C(=O)C1(C)C(C)=CC1C3(C=O)CCC(OC(C)=O)C(C)(C)C3CCC12C (configuration not stated) | ? |
| COc1ccc(-c2nc(C(C)C)nc3c2CCN([S+](=O)([O-])c2c(C)noc2C)CC3)cc1 | 1% |
| Cc1ccc2[nH]c(C(=O)Nc3ccccc3)cc2c1 | -19% |
| COC(=O)[C@@H]1CC2=CC(=O)CC[C@]2(C)[C@@]23O[C@@H]2C[C@@]2(C)[C@@H](CC[C@@]24CCC(=O)O4)[C@H]13 | 17% |
| CCOC(=O)c1cn(C2CN(S(=O)(=O)Cc3ccccc3)C2)nn1 | -8% |
| COc1ccc(NC(=O)c2nc(SCc3ccc(F)cc3)ncc2Cl)cc1 | 7% |
| O=C(Cc1ccc2ccccc2c1)Nc1nnc(-c2ccncc2)s1 | 2% |
| COc1ccc(C2OCC3C(c4cc(OC)c5c(c4)OCO5)OCC23)cc1OC (configuration not stated) | -9%[10 µM] |
| Cc1cccc(C)c1OCc1cc(=O)n2ccsc2n1 | -14% |
| O=C(Cc1ccccc1)N(Cc1cccnc1)c1nc2c(Cl)cccc2s1 | 1% |
| CS(=O)(=O)c1ccc(C(=O)OCC(=O)N2CCN(Cc3ccccc3)CC2)cc1[N+](=O)[O-] | -24% |
| COc1ccc(CNc2nc(N3CCC[C@H]3CO)ncc2C(=O)NCc2ncccn2)cc1Cl | 26% |
| Cc1cc(C)n(-c2nc(C)c(C)c(=O)n2CC(=O)Nc2ccc(OC(F)(F)F)cc2)n1 | -12% |
| CC(C)(O)C1CCC(C)(C2CCC3(C)C4CCC5C(C)(C(=O)OC6OC(CO)C(O)C(O)C6O)C(O)CC(O)C56CC46CCC23C)O1 (configuration not stated) | -8%[10 µM] |
| CCOc1ccccc1C(=O)NC1CC(=O)N(CCc2ccc(F)cc2)C1 (configuration not stated) | -25% |
| COC(=O)c1ccc(NC(=O)c2cc(-c3ccc(C)c(C)c3)nc3ccccc23)cc1 | i |
| O=C(Nc1ccc(S(=O)(=O)N2CCOCC2)cc1)c1cc(Cl)ccc1NS(=O)(=O)c1ccc(Cl)s1 | i |
| Cc1ccc2nc(-c3ccc(C)o3)c(Nc3ccc4c(c3)OCCO4)n2c1 | 7% |
| O=C1N=C(O)CN1/N=C/c1ccc(-c2ccc([N+](=O)[O-])cc2)o1 | 29% |
| N#Cc1c[nH]n2c(NC3CCCCC3)c(-c3cccc(Cl)c3)nc12 | -20% |
| COc1ccc(Cn2cc(S(=O)(=O)c3ccc(Cl)cc3)c(=O)c3cc4c(cc32)OCO4)cc1 | -24% |
| O=C(O)CO[C@@H]1COCC[C@H]1NC(=O)c1cc2c(s1)CCCCC2 | i |
| COC(=O)CC(O)CC(O)/C=C/c1c(C)ccc2c1C(O)CC(C)C2 (configuration not stated) | -14% |

Quoted at random: four entries already listed
| structure | nsP2pro inh |
| --- | --- |
| COC(=O)c1ccc(NC(=O)c2cc(-c3ccc(C)c(C)c3)nc3ccccc23)cc1 | i |
| O=C1N=C(O)CN1/N=C/c1ccc(-c2ccc([N+](=O)[O-])cc2)o1 | 29% |
| COc1ccc(C2OCC3C(c4cc(OC)c5c(c4)OCO5)OCC23)cc1OC (configuration not stated) | -9%[10 µM] |
| O=C(Cc1ccccc1)N(Cc1cccnc1)c1nc2c(Cl)cccc2s1 | 1% |

More records:
| structure | nsP2pro inh |
| --- | --- |
| CC(C)CCCC(C)NC(C)C (configuration not stated) | -2% |
| COc1cccc(CNc2ccc(S(=O)(=O)Nc3nc(C)cs3)cc2)c1O | 3% |
| O=C(c1ccc(F)cc1)N1C[C@@H]2C[C@H](C1)c1ccc(NS(=O)(=O)c3cccc(F)c3)c(=O)n1C2 | -17% |
| COc1ccc(C(=O)N[C@@H]2c3ccccc3C3(CCNCC3)[C@H]2OC)c(C)c1 | -1% |
| C[C@H]1CC[C@H]2[C@@H](C=C[C@@](C)(O)[C@]2(C)C(=O)CCO)C1 | 4% |
| CCCCCC[C@@H](O)C/C=C\CCCCCCCC(=O)O | -14% |
| COc1cccc(CNC(=O)c2oc3ccc4c(c3c2C)C(=O)CC(C)(C)O4)c1OC | -4% |
| Cc1cc2c(s1)c1cnn(Cc3c(C)cc(F)cc3C)c(=O)c1n2C | -11% |
| COc1ccc(S(=O)(=O)Nc2ccc3n(c2=O)C[C@H]2C[C@@H]3CN(C(=O)Nc3cc(OC)cc(OC)c3)C2)cc1 | ? |
| CN1c2cccnc2CN(C2CCC(CO)CC2)CC[C@H]1CO (some centres not stated) | ? |
| CN(C)C(=O)C1CCN(c2nc(-c3ccc(Br)cc3)cs2)CC1 | -5% |
| Cc1ccc(-c2c(C(=O)N3CCN(c4cccc(C)c4)C(C)C3)oc(=O)c3ccccc23)cc1 (configuration not stated) | -15% |
| CN(CC1CCN(CCc2ccc(Cl)cc2)CC1)C(=O)c1ccccc1C#N | -3% |
| COC(=O)c1sccc1S(=O)(=O)N(CC(=O)NCc1ccc(C)cc1)c1ccc(C)c(C)c1 | -15% |
| COC(=O)c1ccc(CSc2nc3c([nH]c4ccccc43)c(=O)n2-c2cccc(OC)c2)o1 | -6% |
| Clc1cccc(CSc2nc3ncc(Br)cc3[nH]2)c1 | -2% |
| O=S(=O)(Nc1nc(CN2CCOCC2)nc2sc3c(c12)CCC3)c1ccc2c(c1)OCCO2 | i |
| C[C@@]12OC(=O)[C@]1([C@@H](O)[C@@H]1C=CCCC1)NC(=O)[C@@H]2CCCl | -12% |
| CCCCCc1ccc(-c2ccc(Br)cc2)nc1 | -21% |
| CCCCCCCCCCCCCCCC(=O)OC[C@@H](O)[C@H]1OC[C@H](O)[C@H]1O | 11% |
| COc1cccc(S(=O)(=O)N2C[C@@H](F)C[C@H]2C(=O)N2CCc3ccccc3C2)c1 | -20% |
| Cc1nc(-c2ccccc2)oc1-c1ccc2ncnc(NCCc3cnc[nH]3)c2c1 | i |
| CCCn1ccc2c(OCC(=O)NCc3ccc(F)cc3)cccc2c1=O | ? |
| Cc1cccc(N2CCn3c2nc2c3c(=O)n(C/C=C/c3ccccc3)c(=O)n2C)c1 | -27% |
| COc1cccc(-c2nc3ccc(-c4ccc5c(c4)OCO5)cc3o2)c1OC | i |

The listing continues:
| structure | nsP2pro inh |
| --- | --- |
| CC1OC(OCC2OC(OC3CCC4(C)C(CCC5(C)C4CC=C4C6CC(C)(C)CCC6(C(=O)OC6OC(CO)C(O)C(O)C6O)CCC45C)C3(C)CO)C(O)C(O)C2O)C(O)C(O)C1O (configuration not stated) | 0%[5.1 µM] |
| COc1ccccc1CNC(=O)CN(c1ccc(C)cc1)S(=O)(=O)c1c(C)noc1C | -2% |
| Cc1sc(NC(=O)Cc2ccc3c(c2)OCO3)nc1-c1ccc2c(c1)CCN2C(=O)c1ccccc1F | 0% |
| CN1CCN([C@H]2CCN(Cc3cccs3)C[C@H]2CCC(=O)O)CC1 | ? |
| Cc1cccn2c(=O)c(/C=C(\C#N)c3nc4ccccc4n3C)c(Oc3ccc(Br)cc3)nc12 | -17% |
| Cc1cc(C)cc(N(CC(=O)Nc2cccc(C)c2C)S(=O)(=O)c2c(C)[nH]c(=O)[nH]c2=O)c1 | -15% |
| Cc1ccc(NC(=O)C2CCC(CNS(=O)(=O)c3ccc4c(c3)CCCC(=O)N4)CC2)c(C)c1 (configuration not stated) | -16% |
| COc1cccc(CNc2ccc(S(=O)(=O)Nc3nccs3)cc2)c1OC | i |
| O=C(OCC#CCSc1nnc(-c2cccc3ccccc23)o1)c1csc2ccccc12 | -4% |
| Cc1ncsc1C(=O)N1CCCC(C)(Cc2ccc3c(c2)OCO3)C1 (configuration not stated) | 3% |
| CCc1ccc(NC(=O)C2CCN(S(=O)(=O)c3ccc4[nH]c5c(c4c3)CCCCC5)CC2)cc1 | -10% |
| Cc1nn(-c2ccc(F)cc2)c(C)c1[C@@H]1C=C[C@@H](NCc2ccc(C(C)C)cc2)C1 | 29%[39.2 µM] |
| O=C(CC1CCOCC1)Nc1ccc(N2CCOCC2)cc1 | -10% |
| Cc1ccc(-n2nc(C(=O)N(C)c3ccc(C)c(C)c3)c3c4ccccc4n(C)c3c2=O)cc1 | -29% |
| Cc1ccc(C)c(CN2C(=O)C(O)(c3c(C)[nH]c4ccccc34)c3ccccc32)c1 (configuration not stated) | -13% |
| CN1C(C(=O)c2ccccc2)=C(NC(=O)c2ccccc2Br)c2ccccc2S1(=O)=O | -19% |
| O=C(Cn1c(=O)n(-c2ccc(F)cc2)c(=O)c2sc3ccccc3c21)NC1CCCC1 | -14% |
| COc1cccc(N2CCN(c3ncc4c(n3)CCN(Cc3ccc(Br)cc3)C4)CC2)c1 | -8% |
| COC(=O)C1=CN(CC(=O)NC(C)c2ccccc2)S(=O)(=O)N=C1C (configuration not stated) | -2% |
| Nc1cc(C(F)(F)F)c(-c2cc(N3CCOCC3)nc(N3CCOCC3)n2)cn1 | 25% |
| Cc1c(C(=O)N2CC[C@@](O)(C3CCOCC3)[C@H](C)C2)n(C)c2c(C)cccc12 | i |
| COc1ccc(Cl)cc1NC(=O)COc1cccc2c(=O)n(C)ccc12 | 52%[activator] |
| C/C=C/CN1CC2ON=C(C(=O)O)C2C1 (configuration not stated) | ? |
| Cc1ccc2nc(NCCc3ccccc3)c3nncn3c2c1 | -28% |
| Cc1ccc(S(=O)(=O)Nc2ccccc2C(=O)Nc2nc(-c3ccccc3)c(Br)s2)cc1 | 1% |

The list continues.
structure	nsP2pro inh
O=C(Nc1ccc2oc(-c3cccnc3)nc2c1)c1ccc(-c2ccccc2OC(F)(F)F)o1	-26%
Fc1ccc(CN2CCC(Nc3ccc(C(F)(F)F)nn3)CC2)cc1F	-8%
O=C(Nc1ccc(Cl)cc1)C1CCCN(C(=O)c2cccc(-c3ccco3)c2)C1 (configuration not stated)	7µM*
CN(C)C(=O)N1Cc2ccccc2OC2(CCN(C(=O)CCCNC(N)=O)CC2)C1	-22%
O=C(N[C@@H]1CCOC[C@H]1Oc1cccc(F)c1)c1cnc2ccccn2c1=O	3%
O=C(CC1Nc2cccc3cccc(c23)NC1=O)Nc1ccc(F)cc1 (configuration not stated)	-25%
Cc1cn(C)c(CC(=O)N2CCN(c3cccc(C(F)(F)F)c3)CC2)c1C(=O)O	-22%
Cc1cc(OC2CN([S+](=O)([O-])c3cccs3)C2)ccc1F	-28%[39.2 µM]
CNC(=O)Oc1ccc2c(c1)[C@]1(C)CCN(C)[C@@H]1N2C	4.4µM*!
CCn1c(=O)c2sccc2n2c(CCC(=O)Nc3ccc(OC)cc3OC)nnc12	-16%
CCn1cc(-c2ccc(C)cc2)cc1C(=O)O	?
COCCNC(=O)C[C@@H]1C[C@@H](C(C)C)[C@H](CNC(=O)C2CC2)C=C1C	i
COc1cc([C@@H](O[C@@H]2O[C@H](CO)[C@@H](O)[C@H](O)[C@H]2O)[C@@H]2CO[C@H](c3ccc(O)c(OC)c3)[C@H]2CO)ccc1O	3%[10 µM]
NC(=O)C1CCN(c2nc(-c3cccnc3)cs2)CC1	-4%
Cc1occc1-c1ccc2ncnc(NCc3ncc[nH]3)c2c1	i
C[C@H]1O[C@@H](O[C@H]2CC[C@@]3(C)[C@@H](CC[C@]4(C)[C@@H]3C=C[C@]35OC[C@@]6(CCC(C)(C)C[C@H]63)[C@H](O)C[C@]54C)[C@]2(C)CO)[C@H](O)[C@@H](O[C@@H]2O[C@H](CO)[C@@H](O)[C@H](O)[C@H]2O)[C@H]1O	-16%
O=C(NCc1ccc(Cl)nc1)c1cn2c(n1)CN(C(=O)c1cccnc1)CC2	3%
Nc1nc2c(ncn2CCC(CO)CO)c(=O)[nH]1	-13%&-15%&-3%
COc1ccc(Cl)cc1NC(=O)c1nnn(Cc2cccc(C(F)(F)F)c2)c1N	-18%
CCc1ccc(NC(=O)c2ccc(CN3CC(=O)N4CCCCC4C3=O)cc2)cc1 (configuration not stated)	-1%

(further entries)
structure	nsP2pro inh
CCc1noc(CN(C(=O)c2oc3ccc(C)cc3c2C)C(C)C)n1	i
O=C(c1ccco1)N1CCN(c2nc(-c3ccc(Br)cc3)cs2)CC1	2%
N#Cc1ccc(NC(=O)Nc2nnc(-c3ccncc3)s2)c(Cl)c1	-5%
O=C(CCCn1c(=O)c2ccccc2n(Cc2cccc(Cl)c2)c1=O)NCCc1ccc(Cl)cc1	-12%
COc1ccc(-c2nc(N3CCOCC3)cc3c2CN(Cc2ccccc2)C3=O)cn1	-6%[39.2 µM]
CN(Cc1cccn1C)C(=O)c1ccccc1Cl	-7%[39.2 µM]
Cc1ccc(S(=O)(=O)c2ccc([N+](=O)[O-])cn2)cc1	0.35µM*
CN(C)c1ccc(C(=C2C=CC(=[N+](C)C)C=C2)c2ccccc2)cc1	?
Cc1cccc(NC(=O)CCCn2c(C)c3cnn(-c4ccccc4)c(=O)c3c2C)c1C	-12%
Cc1cccc(-c2nc3scc(CCNC(=O)c4ccccc4Cl)n3n2)c1	-10%
NCCc1ccc(O)cc1	-22%
O=C(Nc1ccc(F)cc1)c1ccn2cncc2c1	i
Nc1nc2c(c(N3CC[C@@H](N)C3)n1)CCCc1ccccc1-2	31%
CC(C)NC(=O)NC1CC2(CCN(C(=O)Cc3ccc(O)cc3)CC2)c2ccccc21 (configuration not stated)	-11%
CN(C)C(=O)Nc1cc(-c2ccccc2)ccc1N(C)C	18%
COc1ccc(-c2cn3nc(N4CCC(C(=O)NCc5ccccc5F)CC4)sc3n2)cc1	-21%

Exported with each value named: part of the list above
> CCn1c(=O)c2sccc2n2c(CCC(=O)Nc3ccc(OC)cc3OC)nnc12
  nsP2pro inh = -16%
> CCn1cc(-c2ccc(C)cc2)cc1C(=O)O
  nsP2pro inh = ?
> COCCNC(=O)C[C@@H]1C[C@@H](C(C)C)[C@H](CNC(=O)C2CC2)C=C1C
  nsP2pro inh = i
> COc1cc([C@@H](O[C@@H]2O[C@H](CO)[C@@H](O)[C@H](O)[C@H]2O)[C@@H]2CO[C@H](c3ccc(O)c(OC)c3)[C@H]2CO)ccc1O
  nsP2pro inh = 3%[10 µM]

Only part of the results is shown; rates above refer to the full screens.
